NPYLR7 agonist – activates Aedes aegypti NPYLR7 receptor | HEK293T NPYLR7/Galpha15, GCaMP6s calcium fluorescence | activation, % at 10 µM | actives 0.15% (n = 270,000) | AID 1259423; in the data active = activation above about 40%;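 note: 0% = vehicle and 100% = reference agonist at the receptor; some compounds past the cut are filed as inactive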
NPYLR7 agonist max-min – recorded beside NPYLR7 agonist, whose call it bears; activation, %; measured here: Max-Min RFU normalised activation; some inactives read as strong as hits;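 span of the calcium signal over five minutes; 0% = vehicle and 100% = native peptide agonist; compound fluorescence can raise it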
* hit, by the source's call; & = joins results of further samples. Only part of the results is shown; rates above refer to the full screens.

SMILES	NPYLR7 agonist	NPYLR7 agonist max-min
CN(C(=O)C(O)c1cccc(Cl)c1)C1Cc2ccccc2C1 (stereo unspecified)	-1.1	-5.4
O=C(CN1CN(c2ccccc2)C2(CCN(C(=O)Nc3ccccc3F)CC2)C1=O)NCc1ccc2c(c1)OCO2	26.5	22.2
CCCCC1C=CCN1C(=O)CS(C)(=O)=O (stereo unspecified)	7.1	-1.1
CC1(C)CN(C(=O)c2ccco2)C2(S1)C(=O)N(Cc1ccccc1Cl)c1ccccc12 (stereo unspecified)	7.1	12.5
O=C(NC1CC(=O)N(Cc2cccc(F)c2)C1)c1ccccn1 (stereo unspecified)	2.2	2.0
Cc1cc(C)cc(NC(=O)CN2CCCC2c2ccc3c(c2)OCCCO3)c1 (stereo unspecified)	8.8	3.8
CC(Sc1nc2c3ccccc3ncn2n1)C(=O)N1CCCCC1 (stereo unspecified)	11.5	9.7
Cc1nnc(SCCCC(=O)N2CCN(C(c3ccccc3)c3ccccc3)CC2)n1-c1cccc(Cl)c1	27.9	23.4
COc1ccc(NC(=O)NC2CN(C(=O)OC(C)(C)C)C2)cn1	0.8	-0.2
CCOC(=O)c1c(C)n(C)c2ccc(OC(C)=O)c(S(=O)(=O)c3ccccc3)c12	-6.8	-1.3
CCOC(=O)c1c(C)[nH]c(C)c1C(=O)CON=Cc1ccco1	5.7	2.1
Cc1cc(C)n(Cc2ccc(C(=O)N3CCCC(Nc4ccc(C(C)C)cc4)C3)cc2)n1 (stereo unspecified)	2.2&7.4	-0.2&-0.3
N=C1C(c2nc3ccccc3s2)C(=O)CN1NC(=O)c1c[nH]c2ccccc12 (stereo unspecified)	4.7	2.2
Cc1ccc(-c2c(C)oc(C)c2C(=O)NCCc2cccs2)cc1	-4.2	-14.3
O=C(c1ccc(CSCc2ccco2)cc1)N1C2CCC1CC(Oc1ccc3c(c1)OCO3)C2 (stereo unspecified)	-0.8	9.6
FC(F)(F)Oc1cccc(-c2nnc3ccc(-c4cccs4)cn23)c1	-9.4	-13.6
O=C(CN1CCOC1=O)N1CCOc2c(O)cc(-c3csc4ccccc34)cc2C1	0.0	-1.4
Cc1oc(-c2cccc(F)c2)nc1CC(=O)N1CCOC(COc2cccc(C(F)(F)F)c2)C1 (stereo unspecified)	5.1	1.5
Cc1ccc(S(=O)(=O)NCCn2cncn2)cc1	0.2	5.7
O=c1[nH]c(CN2CCCC2)nc2scc(-c3ccccc3Cl)c12	-5.8	-1.3

Compound profiles, as listed above. Screens in order: NPYLR7 agonist, NPYLR7 agonist max-min
O=C(c1ccc(CSCc2ccco2)cc1)N1C2CCC1CC(Oc1ccc3c(c1)OCO3)C2 (stereo unspecified) is entered as -0.8, 9.6
FC(F)(F)Oc1cccc(-c2nnc3ccc(-c4cccs4)cn23)c1 is entered as -9.4, -13.6
O=c1[nH]c(CN2CCCC2)nc2scc(-c3ccccc3Cl)c12 is entered as -5.8, -1.3

Continued.
SMILES	NPYLR7 agonist	NPYLR7 agonist max-min
O=C(NC(c1ccccc1)C1CCC1)c1n[nH]c(=O)c2ccccc12 (stereo unspecified)	-22.4	-22.6
CC12CN(C(=O)c3ccccc3)C3(C#N)CC1CCC23C (stereo unspecified)	-1.4	-2.0
CCOCCOc1nc(-c2ccc(Cl)c(Cl)c2)n(-c2cccc(NC(=O)CC)c2)n1	5.5	13.1
O=C(CCC(=O)N1CCN(c2ccccn2)CC1)NCCCc1ccccc1	11.0	4.9
COc1ccc(CCN2C(=O)CSC2c2ccc3c(c2)OCO3)cc1OC (stereo unspecified)	-11.8	-15.0
CC(C)N(Cc1cccc(OS(=O)(=O)c2cccc(C(F)(F)F)c2)c1)C(=O)Nc1ccc(C#N)cc1	7.5	18.3
Cc1nc2c(c(N(C)Cc3cccc4cnccc34)n1)CNC2	4.4	3.2
CCCCN(C(=O)NC1CCCCC1)c1c(N)n(CC(C)C)c(=O)[nH]c1=O	-1.4	4.1
CCOC(=O)N1CCN(CC(=O)N2N=C(c3cccc(C)c3)CC2c2ccc(F)cc2)CC1 (stereo unspecified)	1.3	-0.8
C=CCn1c(SCc2c(C)noc2C)nc2sc(C)c(C)c2c1=O	23.1	14.0
CN(C(=O)c1ccc(-n2cnnc2)cc1)C1CCCc2ccccc21 (stereo unspecified)	2.0	1.2
CC(=O)c1ccccc1NS(=O)(=O)c1ccc2c(c1)NC(=O)CC(=O)N2	17.8	7.1
C=CCc1cccc2cc(C(=O)N3CCOCC3)c(=O)oc12	5.6	3.7
COc1ccc(-c2nc3ccccc3n2C(=O)c2ccccc2C(=O)O)cc1	-1.8	-1.4
CCC(CC)n1ncc(C)c1NC(=O)c1ncccc1C	6.4	4.0
Cc1ccc(CCNC(=O)C2CC(=O)N(N(C)c3ccccc3)C2)cc1 (stereo unspecified)	-2.0	-7.3
Cc1cccnc1CC(C)NC(=O)c1c(Cl)c(C(F)(F)F)nn1C (stereo unspecified)	-5.5	-12.7
CC(=O)NCc1ccc(C(O)=C(C#N)C(=O)c2cccc(C)c2C)cc1	6.3	1.8
COCCNC(=O)Cn1cc(-c2nnc(-c3ccco3)o2)c2ccccc21	2.1	4.5
O=C(c1ccc(N2CCC(NCc3cccc(OC(F)(F)F)c3)CC2)cc1)N1CCOCC1	18.8	8.6

The closing 6 entries of the part before open the next one:
SMILES	NPYLR7 agonist	NPYLR7 agonist max-min
CCC(CC)n1ncc(C)c1NC(=O)c1ncccc1C	6.4	4.0
Cc1ccc(CCNC(=O)C2CC(=O)N(N(C)c3ccccc3)C2)cc1 (stereo unspecified)	-2.0	-7.3
Cc1cccnc1CC(C)NC(=O)c1c(Cl)c(C(F)(F)F)nn1C (stereo unspecified)	-5.5	-12.7
CC(=O)NCc1ccc(C(O)=C(C#N)C(=O)c2cccc(C)c2C)cc1	6.3	1.8
COCCNC(=O)Cn1cc(-c2nnc(-c3ccco3)o2)c2ccccc21	2.1	4.5
O=C(c1ccc(N2CCC(NCc3cccc(OC(F)(F)F)c3)CC2)cc1)N1CCOCC1	18.8	8.6
CN(CC(=O)c1ccc(O)cc1)Cc1cccc2c1OCO2	22.1	4.9
CC(NC(=O)NCc1ccnn1C)c1cccc(Cl)c1 (stereo unspecified)	-1.2	-1.5
Cc1nc(CNC(=O)c2cc(C3CC3)[nH]n2)nc2c1CCCC2	-4.3	-4.3
Cc1ccc2c(n1)OC(C)CN(CC1CC1)C2=O (stereo unspecified)	1.7	0.3
O=c1ccc(-c2ccco2)nn1CCCNS(=O)(=O)Cc1ccccc1	2.2	0.9
CC1=NN(c2cccc(C(=O)O)c2)C(=O)/C1=C\c1ccc(-c2ccccc2C(=O)O)o1	-3.7	-9.4
COc1ccc2nc(SCC(=O)NC(C)c3cccs3)[nH]c2c1 (stereo unspecified)	-0.4	-2.1
Cc1cc(NS(=O)(=O)c2c(C)c(C)c(C)c(C)c2C)ccc1N1CCCC1=O	3.6	7.5
COc1cc2nc(SCC(=O)N(C)C3CCCCC3)n3nc(C)nc3c2cc1OC	-9.1	-9.6
O=C(CN1CCc2sccc2C1c1ccc(Cl)cc1)N1CCCN(C(=O)c2cccs2)CC1 (stereo unspecified)	11.0	1.7
COc1ccc(S(=O)(=O)NCCc2sc3nc(-c4ccc(C)cc4)nn3c2C)cc1	2.9	-1.1
CC(=O)n1cc(N(C(=O)CCl)c2ccc(C)cc2)c2ccccc21	1.7	6.0
CCc1nc2c(OCc3ccccc3C)cccn2c1N(C)C(=O)c1ccc(OC)cc1	7.7	-3.2
CCOC(=O)c1cc(-c2ccc(N3CCN(C(=O)CCCC(=O)OC)CC3)cc2)n(-c2ccc(OC)cc2)n1	5.5	3.9
O=S(=O)(c1ccc2c(c1)CCC2)N1CCN(CC2CCCCO2)CC1 (stereo unspecified)	4.7	7.6
Cc1cc(=O)[nH]c(SCc2cccc3cccnc23)n1	-4.1	-4.5
Cc1nnc(-c2cn(CC(=O)N3CCCC3)c3ccccc23)o1	2.7	8.6
CCCCOc1ccc(S(=O)(=O)Nc2cc(Cl)ccc2C(=O)NCCc2ccc(OC)cc2)cc1	3.7	1.6
Cc1ccc(CN(CCc2c[nH]c3ccccc23)C(=O)CN(C(=O)c2ccc([N+](=O)[O-])cc2)C(C)C)cc1	-2.5	3.5
Cc1cccnc1N1CCN(Cc2ccc(-n3ccnc3)cc2)CC1	12.0	8.9
COc1ccccc1NC(=O)c1cc2cc([N+](=O)[O-])ccc2oc1=N	-3.1	-7.0
CN(C)S(=O)(=O)c1ccc(C(=O)NCc2c(-c3ccccc3)nc3n2CCS3)cc1	13.3	8.4
COc1cc(-c2ccc(C)s2)cc2c1OCCN(CCc1ccccn1)C2	-2.1	1.2
CN1C=CC(=C2C(=O)c3ccccc3C2=O)C=C1	2.7	-0.2
C=C(C)Cn1c(=O)c2c(nc3n(CCCCCC)c(C)cn23)n(C)c1=O	-14.2	-12.9
COc1ccc2[nH]c(=O)c(CN3CCOC(CN)C3)cc2c1 (stereo unspecified)	4.4	2.3
O=C(CCSc1ccc2c(c1)OCCO2)NCCN1CCCC(O)C1 (stereo unspecified)	8.0	4.7
COc1ccc2nc(N(CCN3CCOCC3)C(=O)/C=C/c3cccs3)sc2c1	13.8	8.9
O=C1/C(=C/c2ccc(-c3ccc([N+](=O)[O-])cc3)o2)C=C(c2ccccc2)N1c1ccc(O)cc1	-1.1	2.1
Cc1cc(C(=O)CSc2nnnn2-c2ccccc2)c(C)n1-c1ccc(Cl)cc1	-6.0	-9.0
O=C(O)CCC(=O)CCC(=O)c1cccs1	1.1&-1.0	0.5&-2.6
CSc1ccc(C(c2c(O)cc(C)n(Cc3ccco3)c2=O)N2CCCCC2)cc1 (stereo unspecified)	10.5	3.3
O=C(c1ccsc1)N1CCC2(CCCN(CC3CCCCC3)C2=O)C1 (stereo unspecified)	10.3	2.3
Cc1cc(Cn2cnc3sc4c(c3c2=O)CCNC4)c(C(F)(F)F)o1	-5.4	-9.0
Cn1c(SCc2cc(Cl)cc3c2OCOC3)nc2ccccc21	-2.6	1.5
CN1CC2(CCN(C(=O)c3cc4cccc(Cl)c4n3C)C2)OC1=O (stereo unspecified)	1.1	0.1
CC(C)c1nnc(SCC(=O)Nc2ccc3c(c2)OCO3)c2c1cnn2-c1ccc(F)cc1	-8.0	-16.2
CN(Cc1cccc(N2CCN(Cc3c(Cl)ccc(Cl)c3Cl)CC2)c1F)S(C)(=O)=O	-1.2	11.8
CCCN(CCC)Cn1c(O)c(N=NC(=O)c2ccccc2)c2cc(Br)ccc21	0.7	-5.2
CC(C)OC(=O)C(C(=O)C(F)(F)F)c1cc(NS(=O)(=O)c2ccccc2)ccc1O (stereo unspecified)	4.7	4.7
COc1ccccc1N1CCN(C(=O)c2cccc(C)c2)C(C)C1=O (stereo unspecified)	12.3	14.1
NCc1ccc(Br)cc1Oc1ccccc1	-15.0	-16.9
COC(C)(C)c1noc(-c2ccc(F)c(NC(C)=O)c2)n1	0.8&6.7	0.5&3.9
CCCNC(=O)C1CCC(Cn2c(=O)c3sccc3n(Cc3ccc(F)cc3)c2=O)CC1 (stereo unspecified)	1.0	-1.3
COc1ccc(S(=O)(=O)NCc2nnnn2C2CCCCC2)cc1C	0.7	-0.6
CCOc1cccc(/C=C2/SC(=Nc3cccc(Cl)c3)C(C(=O)OC)=C2O)c1O	-8.1	-0.9
CN(C)C1CCCC(NC(=O)NCCOc2cccnc2)C1 (stereo unspecified)	-1.2	-3.1
C(=NN1CCN(c2ccccn2)CC1)c1ccc2ncccc2c1	10.5	11.6
CCOC(=O)C1C(=O)C=C(c2ccc(OC)cc2)CC1c1ccccc1C (stereo unspecified)	0.5	3.9
CCOC(=O)Cn1c(=O)c2c(nc3n(C(C)c4ccccc4)c(C)c(C)n23)n(C)c1=O (stereo unspecified)	1.5	8.8

(continued)
SMILES	NPYLR7 agonist	NPYLR7 agonist max-min
CC1CCN(c2ccc(NC(=O)C(Cl)c3ccccc3)cc2C(=O)N2CCCC2)CC1 (stereo unspecified)	-2.8	3.3
CN(Cc1ccsc1)Cc1cc2n(n1)CCCNC2	2.7	1.2
Cc1cc(N2CCN(c3ccc(F)cc3)CC2)nc(-n2nc(C)cc2C)n1	6.1	5.6
COC(=O)C(CCSC)NC(=O)c1cc(COc2ccccc2SC)on1 (stereo unspecified)	4.8	9.7
CCNC(=O)N(Cc1ccco1)Cc1c(-c2ccccc2)noc1N1CCc2ccccc2C1	10.1	7.5
Cc1cc(C)n(-c2nnc(C)n2/N=C\c2cc([N+](=O)[O-])ccc2Cl)n1	0.7	-1.1
COc1ccccc1CNC(=O)CCc1nc(-c2cccs2)no1	0.5	2.1
O=C(C1CCC1)N1CCCC(N2CCN(c3ccccc3)CC2)C1 (stereo unspecified)	3.1	6.4
Cc1ccsc1/C=C1N=C(/C=C/c2ccc([N+](=O)[O-])cc2)OC\1=O	-5.2	-11.1
COCCn1c(C)c(C)n2c3c(=O)n(Cc4ccccc4F)c(=O)n(C)c3nc12	0.2	0.5
Cc1ccccc1C(=O)N1C(C(=O)NCc2ccncc2)COC12CCN(C(=O)c1ccc(F)cc1)CC2 (stereo unspecified)	5.4	3.8
O=C(c1cc2c(nc1Cl)CCC2)N1CCSC1	-18.1	-25.7
CC(NC(=O)CCC1=NNC(=O)CC1)c1ccc(O)c(F)c1 (stereo unspecified)	1.0	-1.9
COc1ccc2oc(=O)n(C3CCN(C(=O)c4ccc(C#N)cc4)CC3)c2c1	6.7	1.4
CCc1[nH]c(C(=O)N2CCN(C(C)C(=O)NC3CC3)CC2)c(C)c1C(=O)OC (stereo unspecified)	0.2	5.7
CN1CCN(c2nc3c(c(N4CCCCC4)n2)CNCC3)CC1	24.8	14.2
CC(C)CCN1CCN(c2cc(Oc3ccc(Cl)cc3)ncn2)CC1	12.6	12.8
Cc1ccc(N2CCn3c(SCC(=O)N4CCCC4)nnc32)cc1	-1.9	-2.0
Cc1nc(CCNC(=O)Cc2c(C)nc(N)nc2C)sc1C	-6.2	-8.9
COCCN(Cc1cc(NC(=O)c2ccccc2Cl)ccc1N(C)C)C(=O)C1CC1	1.4	2.7
Cc1ccc(C(C)C)cc1OCC(=O)N1CCCN(C(=O)Nc2ccccc2)CC1	6.4	2.9
O=C(O)C1(CCc2ccccc2)CCCN(c2ncnc3c2CCC3)C1 (stereo unspecified)	28.2	21.7

Source: PubChem
